PABP polyA inh: PABP poly(A) RNA binding inhibitors, primary screen, biochemical, fluorescence polarization, uHTS. Polyadenylate-binding protein 1 (Homo sapiens), P11940. inhibition, % at 35 µM. 290,000 compounds, 1% hits. AID 2014, 2009;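 active means 50% or more with normal probe brightness, or confirmed in later tests; about a fifth of its hits are not listed in these tables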;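 further: calls also rest on retests at 20 µM and on dose response follow-up; controls were probe without protein and protein plus probe with vehicle; some compounds called inactive have numbers as strong as hits; many hits fall short of the cut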
MT1-MMP act inh: blockers of MT1-MMP proenzyme processing, primary screen, HT1080 RFP-PRO-GFP cells, GFP/RFP fluorescence | AID 651647, 2012 | Matrix metalloproteinase-14 (Homo sapiens), P50281 | 360,000 compounds, 0.061% hits | GFP/RFP ratio fluorescence, overnight; percent of plate control window, DMSO zero | GFP/RFP ratio change, % at 20 µM;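 active means GFP/RFP ratio change of at least 30% with cell ATP level not reduced by more than half and red fluorescence within 50% of control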; further: strong numbers were not always called active
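Assay system: RFP-PRO-GFP reporter HT1080 cells; read-out basis: GFP/RFP fluorescence ratio; benchmarks: DMSO wells and RFP-L50D-GFP cells; doses: 20 µM single dose, 1% DMSO; schedule: overnight cell settling, then overnight compound exposure, 37 °C, 5% CO2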
CSC inhib: cancer stem cell viability inhibitors, primary screen, luminescence | cancer stem cell-like cells viability | inhibition, % at 7.5 µM | 300,000 compounds, 1.1% hits | AID 2717, 2010;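 active means mean at 75% or more and at least half the replicates too; tested in HMLE shEcad cells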;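 further: 0% = median of negative and 100% = median of positive control wells; the first replicate is given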
Env fusion inh: inhibitors of HIV-1 Env-driven cell-cell fusion, primary screen, HeLa-JRFL effector, CEM21 target cells, luciferase. 360,000 compounds, 1.1% hits. inhibition, % at 12.3 µM;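 active means mean replicate inhibition score of at least 50 and every replicate individually at or above 50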;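 further: 0% = plate neutral controls and 100% = maraviroc near 300 nM; one replicate is shown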
Rce1 inhib: yeast Rce1p protease inhibitors, primary screen, biochemical, fluorescence, cell-free homogeneous | CAAX prenyl protease 2 (Saccharomyces cerevisiae (strain ATCC 204508 / S288c)), Q03530 | yeast membranes, quenched prenylated peptide cleavage fluorescence | calls only | 290,000 compounds, 0.27% hits | AID 2563, 2010;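 active means fall in fluorescence gain of 50% or more versus controls, with final raw signal at or below 3038400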;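 further: plate controls were neutral control wells for no effect and wells lacking membranes for full effect; tested at 10 µM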
Target sequence (Q03530 whole entry, looked up): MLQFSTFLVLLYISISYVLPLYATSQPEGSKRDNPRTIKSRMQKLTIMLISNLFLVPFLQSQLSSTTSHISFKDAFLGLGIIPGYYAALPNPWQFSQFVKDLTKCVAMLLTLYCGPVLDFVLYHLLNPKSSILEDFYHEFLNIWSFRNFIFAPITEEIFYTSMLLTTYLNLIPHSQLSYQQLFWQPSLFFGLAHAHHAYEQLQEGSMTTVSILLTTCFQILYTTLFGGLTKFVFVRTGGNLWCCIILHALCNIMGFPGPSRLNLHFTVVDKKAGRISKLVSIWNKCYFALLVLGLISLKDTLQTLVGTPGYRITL
eIF4H inh: human eIF4H binding inhibitors, primary screen, translation initiation inhibitor project, biochemical, uHTS, fluorescence polarization; Eukaryotic translation initiation factor 4H (Homo sapiens), Q15056; 290,000 compounds, 0.94% hits; AID 2012, 2009; inhibition, % at 35 µM; eIF4H fluorescence polarization binding assay;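 active means 50% or more with normal probe brightness, or confirmed in later tests; about a fifth of its hits are not listed in these tables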;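 further: calls also rest on retests at 20 µM and on dose response follow-up; 0% = protein and probe with vehicle and 100% = probe without protein; strong numbers were not always called active; many hits fall short of the cut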
Yeast UUG start: modulators of yeast start codon fidelity, primary screen, whole organism, S. cerevisiae, single point, plate reader; S. cerevisiae UUG-firefly luciferase reporter, luminescence/redox ratio; activity score, % at 18.7 µM; 350,000 compounds, 0.13% hits;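 active means replicate mean at a twofold rise or more, about +100% in these data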;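 further: firefly luciferase made from a UUG start codon reports start codon fidelity; reporter light over untreated wells divided by growth signal over untreated wells; some hits fall short of that in this replicate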
eIF4H inh retest: also measured in eIF4H inh; calls as there; inhibition, %; compound at 20 µM; confirmation average;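 mean of two retest wells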
PABP polyA inh retest: further read-out of PABP polyA inh, marked with its call; inhibition, %; compound at 20 µM; confirmation repeats;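 mean of two retest wells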
MT1-MMP act inh RFP: also measured in MT1-MMP act inh; calls as there; RFP signal change, %; measured here: RFP expression control read;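 0 = vehicle wells; hits needed this value within 50% of zero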
Active calls of the source: *; i = inactive; . = no result given.

SMILES	PABP polyA inh	MT1-MMP act inh	MT1-MMP act inh RFP	CSC inhib	Env fusion inh	Rce1 inhib	eIF4H inh	Yeast UUG start	others
O=C(CC1C[C@H](C(=O)N2CCOCC2)[C@@]2(CCC3CCCC3)c3[nH]c4ccccc4c3CCN2C1=O)NCC12CC3CC(CC(C3)C1)C2 (stereo not given in full)	.	-30.7	-28.9	.	1.6	.	.	-17.3
Cc1ccc2cc(/C=N/NC(=O)CN3CCOCC3)c(Cl)nc2c1	3.5	3.2	3.3	2.1	.	i	-7.3	-15.1
COc1ccc(CNC(=O)CN(C(=O)c2snc(C(N)=O)c2N)c2cccc(F)c2)cc1	0.5	3.1	2.3	.	2.6	i	-10.7	-18.7
Cc1ccc(NC(=S)N2CCN(S(=O)(=O)c3ccc(C)cc3)CC2)cc1	3.8	2.1	0.6	-8.7	11.6	i	-16.1	-20.3
Cc1ccc(C)c(NC(=O)CN(C)C(=O)c2cccc(S(=O)(=O)N3CCCC3)c2)c1	.	0.9	3.5	.	1.6	.	.	-15.9
Nc1nnc(-c2cccc(F)c2)s1	-2.3	2.0	3.3	0.8	-11.7	i	-3.8	-10.7
CCOC(=O)c1ccccc1NC(=S)N1CCC(C)CC1	2.4	-6.3	-0.4	-8.7	.	i	10.0	-25.0
CN(Cc1cccnc1)C(=O)CNC(=O)COc1ccccc1	9.9	-3.4	0.4	11.7	4.7	.	52.1	-18.0	eIF4H inh retest=-2.8;PABP polyA inh retest=-2.2
CC1CN(S(=O)(=O)c2ccc(C(=O)Nc3nccs3)cc2)CC(C)O1 (stereo not given)	1.5	.	.	-5.6	15.1	i	-1.7	.
CCCC1=C([O-])C2N=CC=CC2=[N+](c2ccccn2)C1=O (stereo not given)	-0.1	1.9	-2.1	4.9	8.6	i	-4.5	-5.0
Cc1ccsc1C(=O)OCC(=O)Nc1cccc(S(=O)(=O)N2CCOCC2)c1	-3.4	-1.6	-1.2	-4.0	11.0	i	0.8	.
CCOC(=O)c1c(C)nc(C)c(C(=O)OCC)c1-c1ccc(O)c(OC)c1	17.8	-1.5	1.5	-2.0	1.4	i	1.0	3.3
CC(NC(=O)C1CC1)C(c1cccs1)N1CCOCC1 (stereo not given)	3.8	-2.9	1.9	-10.3	25.2	i	-10.0	-17.8
CC(C)N(C(=O)CN1C(=O)NC(c2ccccc2)(c2ccccc2)C1=O)C(C)C	-2.4	-4.3	-0.5	-8.2	-4.9	i	-5.2	4.1
CCC(=O)NC(=S)Nc1ccccc1C(F)(F)F	.	-0.5	-0.9	-2.1	.	i	.	.
CCS(=O)(=O)c1nc(S(=O)(=O)c2ccc(C)cc2)c(N2CCC(O)CC2)s1	4.8	-2.4	3.7	-15.4	6.6	i	8.1	-39.1
CSc1cccc(CNC(=O)C2CCC(=O)N(CCc3ccccn3)C2)c1 (stereo not given)	-0.5	2.3	4.3	-1.3	15.7	i	-5.4	-13.3
COc1ccccc1CNC(=O)C1CSC2(C)CCC(=O)N12 (stereo not given)	.	-0.7	2.4	.	-1.1	.	.	1.0
O=C(CSc1nccc(=O)[nH]1)NN(c1ccccc1)c1ccccc1	11.3	2.9	6.8	-12.0	10.6	i	4.3	-15.8
COc1ccc(Sc2ccc(NC(=O)c3cccc(Cl)c3)cc2C#N)cc1	.	2.7	-7.6	.	18.6	.	.	-4.8

Next section, overlapping the part above by 4 compounds.
SMILES	PABP polyA inh	MT1-MMP act inh	MT1-MMP act inh RFP	CSC inhib	Env fusion inh	Rce1 inhib	eIF4H inh	Yeast UUG start	others
CSc1cccc(CNC(=O)C2CCC(=O)N(CCc3ccccn3)C2)c1 (stereo not given)	-0.5	2.3	4.3	-1.3	15.7	i	-5.4	-13.3
COc1ccccc1CNC(=O)C1CSC2(C)CCC(=O)N12 (stereo not given)	.	-0.7	2.4	.	-1.1	.	.	1.0
O=C(CSc1nccc(=O)[nH]1)NN(c1ccccc1)c1ccccc1	11.3	2.9	6.8	-12.0	10.6	i	4.3	-15.8
COc1ccc(Sc2ccc(NC(=O)c3cccc(Cl)c3)cc2C#N)cc1	.	2.7	-7.6	.	18.6	.	.	-4.8
CC1CCN(C(=O)CN(Cc2ccc(Cl)cc2)S(C)(=O)=O)CC1	-1.0	8.6	-2.8	-3.5	27.0	i	-1.5	-5.6
Cc1cc(C)c(S(=O)(=O)c2ccccc2)c(N2CCOCC2)n1	-3.3	-2.1	-1.6	1.5	-8.4	i	-9.8	10.6
CCOC(=O)c1c(-c2ccc(Cl)cc2)c(C#N)c(=O)n(N)c1N	-7.4	-1.0	-1.0	.	.	i	-7.7	-20.5
COc1cccc(-c2cc(C(F)(F)F)n3ncc(C(=O)N4CCc5ccccc5C4)c3n2)c1	-3.0	-4.0	-7.3	10.6	8.1	i	-1.7	.
CCn1c(C(=O)N2CCC(C(=O)NCc3cccs3)CC2)cc2sccc21	3.4	-1.2	-1.1	-9.9	11.6	i	0.6	2.9
CCn1cc(C(=O)NCCc2ccc(Cl)cc2)c(=O)c2cc(S(=O)(=O)N(C)C)ccc21	6.3	-4.2	2.5	.	11.2	i	-4.5	1.5
COc1ccc(/C=C/C(=O)NCCN=C2NS(=O)(=O)c3ccccc32)cc1	-9.0	1.2	-0.2	5.2	-12.3	i	4.3	.
O=C(C1=C[C@@H](C2CCCCC2)C[C@@H](OCCCCO)O1)N1CCN(Cc2ccc3c(c2)OCO3)CC1	-0.8	2.2	-1.5	3.5	4.1	i	0.2	-6.2
CCOC(=O)C1(C)CCCCCN1C(=O)c1ccc(Cl)nc1 (stereo not given)	.	5.1	6.8	.	-6.1	.	.	8.3
O=C1C2C3C=CC(C4CC34)C2C(=O)N1/N=C/c1c[nH]c2ccccc12 (stereo not given)	-6.6	-0.5	3.6	-0.8	-71.7	i	-7.0	.
COc1ccc(-c2ccc(Nc3ccc(C(=O)N4CCOCC4)cc3)nn2)cc1OC	9.1	6.6	-1.0	.	.	.	3.5	-20.7
COc1ccc(C2CC(=O)CC(=O)C2n2cncn2)cc1 (stereo not given)	-0.3	-1.2	1.1	-8.0	-48.6	i	-5.2	-12.5
Cc1ccc(Sc2ncccc2C(=O)NC2CCCCCC2)cc1C	-8.0	3.0	2.2	13.0	-13.4	i	-9.6	-18.4
O=C(Nc1ccc2[nH]c(=O)[nH]c2c1)c1cccc([N+](=O)[O-])c1	-3.2	0.2	-0.8	-11.1	3.1	i	5.5	-6.5
Cc1ccc2nsnc2c1S(=O)(=O)N1CCOCC1	-8.6	2.0	3.3	2.2	.	i	-0.2	-12.7
CC(C)OC(=O)NS(=O)(=O)c1cccc([N+](=O)[O-])c1	-8.2	2.5	7.4	-24.8	2.0	i	-0.8	-8.2
COc1ccc(OC)c(S(=O)(=O)N2c3ccccc3CC2C)c1 (stereo not given)	-8.0	-1.2	-1.3	-12.9	.	i	-4.3	-0.4
CCCOc1ccc(/C(O)=C2/C(=O)C(=O)N(CCN(C)C)C2c2ccco2)cc1 (stereo not given)	-0.6	0.5	5.7	-0.4	.	i	0.6	-16.6
O=S(=O)(c1ccc(Br)cc1)c1nc(-c2ccco2)oc1NCC1CCCO1 (stereo not given)	-16.2	-4.1	3.6	.	11.6	i	1.1	.
CC(C)CCNC(=O)C(c1ccncc1)N(C(=O)Cn1nnc(-c2ccc(F)cc2)n1)c1ccccc1F (stereo not given)	-11.0	-16.4	-13.3	-2.7	9.8	i	12.9	.

Compounds from the list above with a cyano group, in the order listed:
SMILES	PABP polyA inh	MT1-MMP act inh	MT1-MMP act inh RFP	CSC inhib	Env fusion inh	Rce1 inhib	eIF4H inh	Yeast UUG start	others
COc1ccc(Sc2ccc(NC(=O)c3cccc(Cl)c3)cc2C#N)cc1	.	2.7	-7.6	.	18.6	.	.	-4.8
CCOC(=O)c1c(-c2ccc(Cl)cc2)c(C#N)c(=O)n(N)c1N	-7.4	-1.0	-1.0	.	.	i	-7.7	-20.5

Further records.
SMILES	PABP polyA inh	MT1-MMP act inh	MT1-MMP act inh RFP	CSC inhib	Env fusion inh	Rce1 inhib	eIF4H inh	Yeast UUG start	others
NC(COCc1ccccc1)c1csc(Nc2ccc(C(=O)NCCO)cc2)n1 (stereo not given)	.	-2.5	-0.1	.	-13.0	.	.	-0.9
O=C(CS(=O)(=O)c1c[nH]c2ccccc12)N1CCCCC1	3.7	8.9	3.6	-12.1	-16.8	i	-2.5	2.3
COc1ccc2oc(C(=O)NCCc3ccccc3)c(C)c2c1	.	2.1	0.2	-1.7	-7.0	i	.	-76.6
CCC(C(=O)OCC(=O)NC(=O)NC(C)(C)C)c1ccccc1 (stereo not given)	-0.2	0.8	-0.5	-10.1	9.6	i	-20.4	.
Cc1ccc(-n2c(C)cc(C)c(C#N)c2=O)cc1	3.0	-8.7	-2.4	0.0	1.1	i	-1.2	-16.2
COCC(C)NC(=O)NC1(C(F)(F)F)Oc2ccc(Cl)cc2O1 (stereo not given)	-7.4	4.2	-9.0	79.7*	9.0	i	-2.4	-5.5
Cc1ccccc1C(=O)N/N=C/c1ccc([N+](=O)[O-])s1	-7.0	-9.7	-11.1	.	.	i	-1.3	-5.1
O=c1cc(CO)oc(C(Nc2ccccn2)c2cccc(F)c2)c1O (stereo not given)	2.8	-3.0	0.6	0.9	10.6	i	0.0	-34.3
O=C(NC1(c2ccccc2)CC1)C1CCC(=O)N(Cc2ccc(Cl)cc2)C1 (stereo not given)	-11.8	0.5	2.8	3.3	7.9	i	-3.9	-1.4
O=c1c2c3c(sc2n2cnnc2n1CCc1ccccc1)CCCC3	-13.3	-8.4	-7.7	.	16.4	i	-3.0	-29.1
NS(=O)(=O)c1ccc(NC(=O)COC(=O)Cc2c[nH]c3ccccc23)cc1	.	3.4	-0.2	-8.1	19.0	.	.	-6.5
COc1cccc(NC(=O)c2oc3ccccc3c2NC(=O)C2CC2)c1	-3.0	5.1	1.5	6.1	-22.2	i	0.4	9.2
CCc1cccc2c1NC(=O)C2(O)CC(=O)c1cccs1 (stereo not given)	2.9	-1.8	4.5	-2.8	2.9	i	-10.9	.
CSc1ccccc1NC(=O)c1ccc(Br)o1	-7.4	1.8	-0.4	-5.2	-184.7	i	-10.5	3.5
CCN(Cc1ccccc1)Cc1c(F)cccc1F	9.7	0.7	0.9	-3.1	.	i	8.8	-6.4
COC(=O)c1ccc(NC(=O)CSc2nnc(COc3ccccc3)n2C)cc1	-13.2	6.8	6.3	1.0	.	i	-7.4	-15.7
CC(=O)Nc1ccc(NC(=O)c2ccccc2CCc2ccccc2)cc1	-7.4	1.1	3.0	1.0	-10.6	.	-6.5	.
C=CCN1C(=O)N/C(=C/c2ccccc2OCC(=O)Nc2ccc(F)cc2)C1=O	-5.4	7.1	-1.2	-7.8	-23.5	.	-14.5	.
O=c1ccc(-c2ccc(S(=O)(=O)Nc3ccccc3)o2)n[nH]1	-1.4	3.7	3.2	-5.4	-9.4	i	-7.6	-12.9
CCC(=O)Nc1c2c(nn1-c1ccc(C)cc1C)CSC2	-7.2	1.8	0.5	-4.7	.	i	-2.2	-15.4
COc1cc(OC)cc(C(=O)N[C@H](C(=O)NCc2ccco2)C(C)C)c1	-0.4	-5.3	4.3	18.8	5.4	i	4.2	-1.3
CCOc1ccc(OCC(=O)N(C)c2c(N)n(Cc3ccccc3)c(=O)[nH]c2=O)cc1	.	-2.1	3.8	7.8	-6.0	i	.	.

Bioassay records as filed in PubChem BioAssay.

This is a subset (hit frequency here may not be typical).
